# High-throughput results (PubChem)
# CDC25B-CDK2 inh: human CDC25B-CDK2/CyclinA binding inhibition | 94,000 compounds, 0.72% hits | z-score (concentration not given with the values) | HTRF CDC25B-CDK2/CyclinA binding, anti-His/anti-Flag; stronger effect = higher value | P30305+P24941;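 note: score is relative to mean and SD of negative controls; strong numbers were not always called active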
# HIV TAR-Tat: HIV-1 TAR-Tat binding disruption; HIV-1 TAR RNA, Tat peptide displacement FRET; stronger effect = higher value; z-score (test concentration not listed); 100,000 compounds, 0.6% hits; AID 1259389;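 note: score is relative to mean and SD of negative controls; some compounds called inactive have numbers as strong as hits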
# Numbers without * were called inactive; x = no result given.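 Rule for the calls: active = z-score from 3 up in half or more of its runs; inactive = the rest.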 An unsorted share of the library. About 0.87% of those tested had a hit in this group.
SMILES,CDC25B-CDK2 inh,HIV TAR-Tat
O=[n+]1cc(-c2ccc(Cl)cc2)n([O-])c2c1CCCCC2,-2.6,x
CN(CC(=O)N1CCN(C2CCCC2)CC1)S(=O)(=O)c1ccc2c(c1)CCCC(=O)N2,x,0.28
Fc1ccc(-c2csc(-c3ccsc3)n2)cc1,-1.31,x
CCCc1nn2c(=O)cc(COC(=O)c3cccc(C)c3)nc2s1,x,0.02
O=C(CCc1nnc2ccc(NCc3cccnc3)nn12)NC1CCCCC1,x,2.95
CCn1c(COc2ccc(C(C)(C)C)cc2)nnc1SCc1cc(=O)c2ccccc2[nH]1,x,-0.17
CCOc1ccc2ncc(S(=O)(=O)c3ccccc3)c(N3CCOCC3)c2c1,-0.32,1.9
CCC1CN(C(=O)N2CCC(C(=O)NC)CC2)c2ccccc2O1 (configuration not stated),x,1.43
COC(=O)C1=NN(c2ccccc2OC)C2C(=O)N(c3ccc(Br)cc3)C(=O)C12 (configuration not stated),2.05,1.39
COC(=O)c1c(NC(=O)CCC(=O)O)sc2c1CC(C)(C)OC2,-1.6,-0.77
COc1ccc(-c2nc3c([nH]2)c(=O)n(C)c(=O)n3C)cc1,x,1.88
Cc1ccc(S(=O)(=O)N2CCC(c3nc(-c4cccnc4)no3)CC2)cc1,-0.66,0.13
COc1ccc(Cl)cc1S(=O)(=O)Nc1cccc(-c2ccc(S(C)(=O)=O)nn2)c1,x,1.97
CC(C)NC(=O)c1c(O)c2cccc3c2n(c1=O)CC3,-1.04,1.96
O=C(Cc1cccc2ccccc12)Nc1ncnc2sc3c(c12)CCCC3,x,1.73
CCCN(CCC)C(=O)c1cc2c(s1)-c1ccc(Cl)cc1S(=O)(=O)C2,-2.25,2.07
Cc1cn(C2OC(CO)C(O)C2O)c(=O)[nH]c1=O (configuration not stated),-0.27,0.24
CCC1=Nc2cc(C(=O)NCCCOC(C)C)ccc2Sc2ccc(Br)cc21,-0.7,-0.96
CC1(C)NC(=S)N2N1C(=S)NC2(C)C,-0.52,x
CN1CCN(CCn2cnc3c2c(=O)n(C)c(=O)n3C)CC1,-2.57,x

# Sorted by formula weight (highest first): part of the list above
SMILES,CDC25B-CDK2 inh,HIV TAR-Tat
COc1ccc(Cl)cc1S(=O)(=O)Nc1cccc(-c2ccc(S(C)(=O)=O)nn2)c1,x,1.97
CCCN(CCC)C(=O)c1cc2c(s1)-c1ccc(Cl)cc1S(=O)(=O)C2,-2.25,2.07
O=C(Cc1cccc2ccccc12)Nc1ncnc2sc3c(c12)CCCC3,x,1.73
Cc1cn(C2OC(CO)C(O)C2O)c(=O)[nH]c1=O (configuration not stated),-0.27,0.24
CC1(C)NC(=S)N2N1C(=S)NC2(C)C,-0.52,x

# (more compounds)
SMILES,CDC25B-CDK2 inh,HIV TAR-Tat
CN(C)CCNC(=O)c1ccc(NC2=NC3CS(=O)(=O)CC3S2)cc1 (configuration not stated),x,2.12
COCCOC(=O)C1=C(N)OC2=C(C(=O)CCC2)C1c1cccnc1 (configuration not stated),-0.72,x
Cc1ccc(NS(=O)(=O)c2cn(C)cn2)cc1N(C)C,x,2.03
CC(CCc1ccccc1)NC(=O)C1C2C=CC3(CN(Cc4cccs4)C(=O)C13)O2 (configuration not stated),0.43,-0.24
CCOC(=O)c1c(C)oc2nc(C)nc(NCCc3ccc(SC)cc3)c12,x,0.48
Cc1noc(NS(=O)(=O)c2ccc(NC(=O)c3cnc4sccn4c3=O)cc2)c1C,-2.31,x
O=C(Nc1nc(-c2cc([N+](=O)[O-])cs2)cs1)c1ccccc1F,x,-0.47
CCCc1nnc(NC(=O)c2nn(-c3ccccc3)ccc2=O)s1,-0.68,0.22
O=C1C(=O)N(c2nc3ccccc3s2)C(c2cccnc2)/C1=C(/O)c1ccc(Cl)cc1 (configuration not stated),0.1,-0.05
C=CCSc1nc2c(c(=O)[nH]1)C(c1cc(Br)ccc1OC)CC(=O)N2 (configuration not stated),0,2.03
O=C(Cn1cnc(S(=O)(=O)N2CCCCC2)c1)N1CCN(c2ccccn2)CC1,x,0.86
CCOC(=O)C1CCN(c2cnn(-c3nc4ccccc4s3)c(=O)c2Cl)CC1,-0.07,1.11
Cc1c(C(=O)N2CCCCC2)c(S(=O)(=O)N(Cc2cccs2)C2CCCC2)c(C)n1C,x,-0.7
COc1ccc(-c2noc(-c3nnn(-c4ccc(C)c(C)c4)c3N)n2)cc1,x,4.68*
C=CCOC(=O)C1=C(C)NC2=C(C(=O)CC(C)(C)C2)C1c1ccccc1Cl (configuration not stated),-2.35,1.87
CC(C)CCNC(=O)Nc1c[nH]c(=O)[nH]c1=O,x,1.69
CCOC(=O)Cc1csc(NC(=O)CN(C)S(=O)(=O)c2ccc3c(c2)CCC(=O)N3)n1,-0.4,x
CCOC(=O)c1c(NC(=O)c2ccc3c(c2)OCO3)sc(C(=O)NC2CCCC2)c1C,-1.42,-0.28
O=S(=O)(Nc1cccc(-c2ccc(N3CCCCC3)nn2)c1)c1ccc(Cl)cc1,x,1.36
O=C(CCC1Nc2c3ccccc3nc(=S)n2C1=O)N1CCN(c2ccc(Cl)cc2)CC1 (configuration not stated),-1.01,x
Cc1sc(NC(=O)c2ccccc2[N+](=O)[O-])nc1-c1ccc(Cl)cc1Cl,0.92,x
CC(C)CC1=NN(C(=O)c2ccc(F)cc2)C(O)(C(F)(F)F)C1 (configuration not stated),0.99,x
Nc1ccc2nc(CCCc3nc4ccccc4s3)[nH]c2c1,7.22,1.07
O=C(O)c1ccc2[nH]cc(C(=O)O)c(=O)c2c1,0.45,0.62
CCOC(=O)C(NCc1ccco1)(NC(=O)c1ccco1)C(F)(F)F (configuration not stated),0.69,x
O=C(Nc1ccccc1Cl)c1cnn(-c2cccc(F)c2)c1-n1cccc1,x,0.25
CC(C)COC(=O)c1sc2nc(N3CCOCC3)c3c(c2c1N)CC(C)(C)OC3,-1.84,0.94
OCCN1CCN(c2ncnc3c2cnn3-c2ccccc2)CC1,x,0.55
CCOC(=O)c1c(S(=O)(=O)N2CCCC(C(=O)NCc3ccco3)C2)c(C)n(CC)c1C (configuration not stated),x,1.09
CCOC(=O)c1cc2c(=O)oc3ccccc3c2n1CC,-1.4,-0.48
O=C(Nc1nnc(Cc2nc3ccccc3s2)s1)c1cccs1,x,1.06
COc1ccc(NC(=O)CSc2ccc([N+](=O)[O-])cc2[N+](=O)[O-])cc1,-1.37,x
COC(=O)CS(=O)(=O)c1nc2ccccc2nc1N1CCCCC1,0.69,0.06
COC(=O)c1sc2ccccc2c1S(=O)(=O)N1CCN(c2ccccc2OC)CC1,x,-2.7
COc1ccc(N2C(=S)SC3CS(=O)(=O)CC32C)cc1 (configuration not stated),-0.75,3.66
O=C(Nc1cccc(Cl)c1)c1cnn(-c2ccc([N+](=O)[O-])cc2)c1C(F)(F)F,1.23,x
O=C1Nc2ccccc2C1Cc1ccccn1 (configuration not stated),-0.82,x
C/C(=N/OS(=O)(=O)c1ccccc1)c1nccs1,-2.7,x
CCC(C)Nc1nc(SC)nc(-c2ccc(C)cc2)c1C#N (configuration not stated),0.09,0.93
O=C(COc1ccc(F)cc1)Nc1c(C(=O)N2CCCC2)oc2ccccc12,x,1.06

# For reference, part of the list above.
SMILES,CDC25B-CDK2 inh,HIV TAR-Tat
O=[n+]1cc(-c2ccc(Cl)cc2)n([O-])c2c1CCCCC2,-2.6,x
CN(CC(=O)N1CCN(C2CCCC2)CC1)S(=O)(=O)c1ccc2c(c1)CCCC(=O)N2,x,0.28
Fc1ccc(-c2csc(-c3ccsc3)n2)cc1,-1.31,x
CCCc1nn2c(=O)cc(COC(=O)c3cccc(C)c3)nc2s1,x,0.02
O=C(CCc1nnc2ccc(NCc3cccnc3)nn12)NC1CCCCC1,x,2.95

# Remaining list, next part
SMILES,CDC25B-CDK2 inh,HIV TAR-Tat
Clc1ccccc1N1CCN(Cc2nnc(-c3ccccc3)o2)CC1,-0.5,0.58
CC1=C(C(=O)OC2CCCC2)C(c2cccc(Br)c2)C2=C(CCCC2=O)N1 (configuration not stated),-1.59,2.58
O=C(c1cc2nc(-c3ccco3)cc(C(F)(F)F)n2n1)N1CCc2ccccc2C1,-0.96,2.36
CCCCN(CC)S(=O)(=O)c1c(C)[nH]c(C)c1C(=O)OCC,x,0.59
CCc1ccc(-c2nc(-c3ccc(C)cc3)no2)cc1,-1.2,x
C/C(=N\OC(=O)c1ccc(Cl)cc1)c1csc2ccccc12,-1.65,x
c1ccc2oc(-c3nn4c(-c5ccncc5)nnc4s3)cc2c1,-1.31,0.6
CCCCNC(=O)NC1(C(F)(F)F)Oc2ccc(Cl)cc2O1 (configuration not stated),0.32,x
CCOC(=O)c1nn(-c2ccc(C)cc2)c(=O)c2c(N)scc12,17.8*,-5.45
CCOC(=O)N1CCN(C(=O)C2=CCN(S(=O)(=O)c3ccc(Br)cc3)CC2)CC1,-1.07,0.5
CCCCNS(=O)(=O)c1ccc2c(c1)NC(=O)C(C)S2 (configuration not stated),x,2.92
c1ccc(CN2CCN(Cc3ccccn3)CC2)cc1,0.54,1.93
O=C(CSc1nc2c(cnn2-c2ccc(Cl)cc2)c(=O)[nH]1)Nc1ccc2c(c1)OCO2,x,2.51
O=C(O)c1cccc2c1NC(c1ccc(Cl)cc1)C1C3CCC(C3)C21 (configuration not stated),0.19,2.83
COC(=O)c1ccc(-c2nc3c(c(=O)[nH]2)Cc2cccc(C)c2O3)cc1,-1.07,2.04
COc1ccc(C(=O)NCCSCc2ccccc2Cl)cc1,-1.13,x
O=S(=O)(CS(=O)(=O)Sc1ccc(Cl)cc1)Sc1ccc(Cl)cc1,-1.42,x
CC(=O)Nc1cccc(C(=O)CCC(=O)O)c1,-0.6,x
O=[N+]([O-])C(Cl)([N+](=O)[O-])C12CC3CC(CC(C3)C1)C2,-1.64,x
O=C(c1ccco1)N1CCN(C(=O)c2noc3c2CCCC3)CC1,x,0.28
NC(=O)c1ncn([C@@H]2O[C@H](CO)[C@@H](O)[C@H]2O)c1O,-2.19,0.91
O=C(NC1CCCCC1)C1CCC(CNS(=O)(=O)c2cccc3cccnc23)CC1 (configuration not stated),-1.85,x
COc1ccc(OC)c(NC(=O)c2sc3nc4c(cc3c2N)CCCCCC4)c1,-0.53,x
COc1ccc(O)c(C2=NN3C(C2)c2ccccc2OC3c2cccs2)c1 (configuration not stated),-0.73,-2.55
CN(CCc1ccncc1)C(=O)c1ccc(N2C(=O)CCS2(=O)=O)cc1Cl,-2.55,0.35
COc1ccccc1Cn1cc2c(-c3ccc(F)cc3)nnc-2c2cc3c(cc21)OCO3,0.03,2.04
O=C1CC(c2ccccc2)S(=O)(=O)c2ccccc2N1Cc1cccc(F)c1 (configuration not stated),1.28,0.37
Cc1ccc(-c2noc(CNC3CCCCC3)n2)cc1,-0.73,1.88
Cc1nc2ccc(S(=O)(=O)NC(CC(C)C)C(=O)NC3CCCCC3)cc2s1 (configuration not stated),-1.63,3.74
CCn1ncc(C2=NOC(C(=O)Nc3c(C)n(C)n(-c4ccccc4)c3=O)C2)c1C (configuration not stated),-1.57,-0.48

# Single records (already shown). Screens in order: CDC25B-CDK2 inh	HIV TAR-Tat
# Listed for CCn1c(COc2ccc(C(C)(C)C)cc2)nnc1SCc1cc(=O)c2ccccc2[nH]1 = x	-0.17
# Listed for CCCCN(CC)S(=O)(=O)c1c(C)[nH]c(C)c1C(=O)OCC = x	0.59
# Listed for O=C1C(=O)N(c2nc3ccccc3s2)C(c2cccnc2)/C1=C(/O)c1ccc(Cl)cc1 (configuration not stated) = 0.1	-0.05

# Later entries
SMILES,CDC25B-CDK2 inh,HIV TAR-Tat
COC(=O)CC1(C(=O)OC)NC(=O)C(N)=C1C(=O)OC (configuration not stated),-1.36,x
CN(CCNC(=O)c1csc2c1CCCCC2)C1CCCCC1,-1.4,-0.1
COc1cccc(C(c2sc3nc(C)nn3c2O)N2CCN(C)CC2)c1 (configuration not stated),-0.59,x
COc1ccc(C2CC(=O)Nc3c2cc(Br)c2ccccc32)cc1OC (configuration not stated),-0.07,1.42
O=C(CCn1c(=S)[nH]c2cc3c(cc2c1=O)OCO3)NCC1CCCO1 (configuration not stated),-1.64,x
CN(C(=O)COCc1cc(-c2ccc(F)cc2)on1)C1CCCCC1,x,1.79
Cc1[nH][nH]c(=O)c1C(c1c(C)[nH][nH]c1=O)c1cn(Cc2ccccc2)c2ccccc12,-1.84,0.67
COc1ccc(OC)c(CNc2c3c(nc4ncnn24)CCCC3)c1,x,0.45
Cc1cc(C)nc(SC(=O)OC(C)(C)C)n1,-1.22,x
O=[N+]([O-])C(Br)([N+](=O)[O-])C12CC3CC(CC(C3)C1)C2,-1.44,x
CC1CC(C)CN(S(=O)(=O)c2ccc3c(c2)oc(=O)n3CC(=O)NCCCOC(C)C)C1 (configuration not stated),-1.63,-0.53
CC(=O)NCCNC(=O)CCCCn1c(=O)[nH]c2ccsc2c1=O,-1.09,-0.23
CCN1CCc2c(sc(-n3cccc3)c2C(C)NC(=O)Nc2ccc(Br)c(C)c2)C1 (configuration not stated),x,-7.28
Cc1ccc(-c2nn3c(C4COc5ccccc5O4)nnc3s2)cc1C (configuration not stated),0.75,1.57
O=C1CC(c2ccc(C(F)(F)F)cc2)c2cc3c(cc2N1)OCCO3 (configuration not stated),-0.09,x
Cc1nc2nc(C)c(CCC(=O)NCc3ccco3)c(C)n2n1,-1.48,-0.4
O=C(CC1(O)C(=O)Nc2ccccc21)c1ccc2c(c1)OCO2 (configuration not stated),0.53,1.23
COC(=O)c1sccc1Oc1ccc(Cl)cc1NC(=O)/C=C/C(=O)O,-0.92,x
O=C(NCCn1cnc2cc(C(=O)N3CCCC3)ccc21)NCc1ccc(F)cc1,x,-0.9
CCOC(=O)CSc1nc2ccccc2c2nc(CCc3c(C)n[nH]c3C)nn12,x,1.86
CC(C)Cc1nc2ccn(Cc3ccccc3)cc-2n1,x,0.84
